HTT promoter inh – Primary qHTS for Identification of Small Molecule Inhibitors of Huntingtin Promoter Activity; 48,000 compounds, 0.93% hits; HEK293 HTT promoter firefly luciferase reporter (activity 0% = vehicle and -100% = no light), 24 h; Potency, µM (highest dose often 57.5 µM), for the others: at the top dose activity change, negative = inhibition, most hits filed as inhibitors; active = well fitted inhibition curve with a large enough effect; inconclusive = small, poorly fitted or top-dose-only effect; inactive = no such curve, though single readings can be large or run the other way; note: nearly all actives have a fitted effect of over 50% in size
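HEK293 Fluc reporter, 2,500 cells/well, 24 h pre-culture; cpds up to 57.5 uM final, 24 h 37 degrees C; Dual-Glo, 10 min RT; normalized vehicle = 0%, zero RLU = -100%.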
PMP22 txn – Cell-based coincidence reporter assay to measure PMP22 gene transcription in S16 Pmp22-F2sN cells - Primary screen; S16 Pmp22-F2sN Schwann cells (luciferase reporters placed in the Pmp22 gene), FLuc/NLuc coincidence luminescence, 24 h; Potency, µM (titrated, usually from 57.5 µM), for the others: at the top dose activity change, negative = inhibition, actives largely listed as inhibitors; 43,000 compounds, 2% hits; AID 1508649, 2021; active = clear falling dose curves in both reporters; inconclusive = both reporters move, but less clearly or upward; inactive = either reporter flat; the % is the NLuc reporter signal; note: % is set by controls: 0 for no effect and ±100 for the full control effect; some results filed as inactive show a strong effect at the top dose
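qHTS, 1536-well. Cells seeded, compounds added by pin tool, 24 h 37C. Nano-Glo reagent 1 (lysis/FLuc), 10 min RT, read; Stop&Glo, 10 min RT, read NLuc.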
An asterisk follows results filed as active; u = inconclusive; x = not tested or not shown; [ ] = another dose, or the depositor's remark. Potency is the fitted concentration of half-maximal effect.

SMILES	HTT promoter inh	PMP22 txn
c1ccc(-c2noc(-c3cccnc3NCc3ccco3)n2)cc1	62.0%[activator]	-13.4%
O=C(Nc1cccc2c1CCCC2)N1CCOc2ccc(Cl)cc21	-6.2%	-12.3%
CC(=O)N1c2ccccc2C(=O)C1N1CCN(c2ccccc2F)CC1 (stereo not given)	-17.4%	3.1%
Cc1ccc2cccc(NC(=O)c3cccc4c(Cl)cccc34)c2n1	-1.4%	-21.3%
COc1ccccc1CNC(=O)Cn1c(=O)ccc2cc(S(=O)(=O)N3CCCC3)ccc21	7.6%	-35.3%
CCOC(=O)C1=C(C)N=C2SCCC(=O)N2C1c1ccc(OCc2ccccc2)c(OC)c1 (stereo not given)	-23.8%	-10.6%
Cc1ccc(Nc2c(-c3ccc(N4CCOCC4)cc3)nc3cccc(C)n23)cc1	11.1%	-85.9%
Cc1ccc2nc(CN3CCN(S(=O)(=O)c4ccccc4)CC3)oc2c1	0.0%	u
CCOC(=O)c1cc(-c2ccc(F)cc2)n(CCC(=O)NC2CCC(C)CC2)c1C (stereo not given)	u	u
O=C(NC1CCCC1)c1c[nH]c2ccc(S(=O)(=O)Nc3cccc(C(F)(F)F)c3)cc2c1=O	u	-8.9%
COc1ccc(Cl)cc1-n1nnc(-c2nsc(NC(=O)c3ccccc3Cl)n2)c1C	-8.1%	-4.3%
COc1ccccc1CCNC(=O)Cn1ccc2cc(S(=O)(=O)N3CCCCC3)ccc21	u	-16.3%
Cc1cccc(OCCSc2nnc(-c3cccs3)o2)c1	-23.1%[11.5 µM]	-8.7%
Cc1ccc2nc(COc3ccccc3NC(=O)c3ccccc3F)cc(=O)n2c1	-2.5%	-1.7%
COc1cc(C(=O)NCC(c2cccnc2)N2CCN(c3ccc(F)cc3)CC2)cc(OC)c1OC (stereo not given)	-19.2%	6.7%
CCS(=O)(=O)c1oc(-c2ccc(F)cc2)nc1S(=O)(=O)c1ccc(Br)cc1	u	3.03µM*
CC(=O)c1ccc(NC(=O)c2ccc(-c3nc(CSc4ccccc4)c(C)o3)cc2)cc1	u	-39.5%
O=C(NCCc1ccccc1)C(=O)NCC(c1cccnc1)N1CCN(c2ccccc2)CC1 (stereo not given)	u	-31.2%
CCc1ccccc1NC(=O)N1CCOc2ccccc21	-16.1%	u
CC(=O)Nc1cc(C(=O)NCc2ccc(C)cc2)ccc1S(=O)(=O)c1ccc(Cl)cc1	-18.8%	-0.2%
CN(C)c1ncc(C(=O)NCc2ccc(Cl)cc2)cn1	-29.4%	-1.4%
Cc1cccc(-c2nc(N3CCN(c4ccc(F)cc4)CC3)c3ccccc3n2)c1	-0.7%	3.1%
CCC(=O)NCc1cc(-c2nn(C)c(=O)c3ccccc23)ccc1OC	-4.4%	3.1%
NC(=O)c1cc(S(=O)(=O)N2CCN(c3cccc(C(F)(F)F)c3)CC2)cs1	-4.8%	-7.6%
Cc1ccc2nc(Nc3ccc(C)c(F)c3)c3nncn3c2c1	5.9%	u
CCCNC(=O)CN1C(=O)COc2ccc(S(=O)(=O)N3CCCC3)cc21	-13.6%	-11.2%
CCOc1ccc(CCNC(=O)c2ccc(C)c(-n3cnc4cccnc43)c2)cc1	-10.3%	-28.8%
CCOC(=O)C1=C(CS(=O)(=O)c2ccc(F)c(C)c2)NC(=O)NC1c1ccc(F)c(F)c1 (stereo not given)	u	1.2%
COc1ccc(NC(=O)C2CCC(CNS(=O)(=O)c3cccc4nsnc34)CC2)cc1OC (stereo not given)	-19.5%[11.5 µM]	7.1%
Cc1cccc(NC(=O)Nc2ccc(C)c(C)c2)n1	67.8%[activator]	-11.4%
COc1ccc(-c2nc(CSCC(=O)N3CCN(c4ccccc4F)CC3)c(C)o2)cc1	28.2µM*	u
CC1=C(C(=O)OCc2ccccc2)C(c2cccc(Cl)c2Cl)CC(=O)N1 (stereo not given)	u	u
CCn1nnc2c(N3CCOCC3)nc(-c3ccc(NC(=O)Nc4ccc(C(=O)N5CCN(C)CC5)cc4)cc3)nc21	u	x
CCOc1ccc(C(=O)OCc2cc(=O)n3cc(C)sc3n2)cc1	-0.9%	10.8%
O=C(CSc1cn(CCNC(=O)c2c(F)cccc2F)c2ccccc12)Nc1ccc2c(c1)OCCO2	-16.5%	u
O=C1NC(=O)C(=Cc2ccc3nccnc3c2)S1	12.9%[25.2 µM]	x
CCOc1ccc(NC(=O)CCS(=O)(=O)c2cc3c4c(c2)CCN4C(=O)CC3)cc1	-12.8%	4.8%
COc1cccc(NC(=O)CSc2nc(O)c(C/C=C/c3ccccc3)c(=O)[nH]2)c1	-8.9%	4.4%
CCn1cc2nc(SCC(=O)Nc3ccc(OC)c(Cl)c3)n(Cc3ccc(OC)cc3)c(=O)c2n1	-23.0%	-1.6%
COCCNC(=O)C1CCN(Cc2cc3ccccc3n2Cc2ccc(C)cc2)CC1	4.9%	-19.1%
CCOC(=O)c1c(NC(=O)c2ccccc2Cl)sc2c1CCCC2	-25.2%	u
Cc1cccc(C(=O)N2CCc3cc(CNC(=O)c4ccco4)ccc32)c1	u	u
Cc1nc2nc(SCC(=O)NCCc3ccc(Cl)cc3)nn2c(C)c1Cc1ccccc1	u	-2.8%
C#CCOc1c(Br)cc(C2C(C(=O)OC)=C(C)NC3=C2C(=O)c2ccccc23)cc1OCC (stereo not given)	u	u
COc1ccc(S(=O)(=O)NCCc2sc(-c3ccccc3)nc2C)cc1F	-21.2%	u
CC(=O)c1cccc(S(=O)(=O)NCCc2csc3nc(-c4ccc(F)cc4)nn23)c1	u	u
COc1ccc(NC(=O)C2CCN(S(=O)(=O)c3ccc4c(c3)CCCC(=O)N4)CC2)c(OC)c1	-27.6%	-5.7%
COc1ccccc1OCC(=O)Nc1cc(-c2ccc(C)cc2)no1	31.5%[activator]	4.7%
COc1ccc(OC)c(S(=O)(=O)N2CCC(c3ccncc3)CC2)c1	u	-21.2%
CCOc1ccc(CCNC(=O)CCc2cn(Cc3ccc(F)cc3)c3ccccc23)cc1	-23.7%	-4.3%
CCOC(=O)c1c(C)sc(-c2c(-c3ccccc3)[nH]c3[nH]c(=O)[nH]c(=O)c23)c1O	-9.7%	-14.2%
COc1cc(C(CC(=O)Nc2cc(C)ccn2)N2Cc3ccccc3C2=O)cc(OC)c1OC (stereo not given)	-11.2%	3.3%
CC(=O)c1cc2c(cc1N/C(=N/S(=O)(=O)c1ccc(F)cc1)c1ccccc1)OCO2	-11.1%	-18.5%
COc1ccc(CCNC(=O)Cn2c(=O)cc(C(F)(F)F)c3c(C)nn(C)c32)cc1OC	-24.6%	3.1%
CC(C)c1cc(-c2nc(-c3ccc(Cl)cc3)no2)n[nH]1	8.1%	u
CC(=O)Nc1ccc(NC(=O)CCC(=O)c2ccc(C)cc2)cc1	-8.5%	-20.3%
COC(=O)c1c(NC(=O)COc2ccc(OC)cc2)sc2c1CCC(C)C2 (stereo not given)	u	u
CCOc1ccc(NC(=O)c2ccc(NC(=O)N3CCSc4ncccc43)cc2)cc1	u	0.3%
O=C(COc1ccc2oc3c(c2c1)CCCC3)Nc1cccc(Br)c1	-1.8%	-26.0%
COc1ccc(S(=O)(=O)NCCc2nnc3ccc(SCC(=O)Nc4ccccc4C)nn23)cc1	-14.3%	u
The results go on.
SMILES	HTT promoter inh	PMP22 txn
COc1ccccc1N1CCN(CC(O)COc2ccc(Cl)c(C)c2)CC1 (stereo not given)	6.7%[11.5 µM]	2.1%
Cc1ccc(-n2ncc(C(=O)NCCCN3CCCCC3)c2C2CCN(C(=O)OC(C)(C)C)CC2)c(C)c1	-16.2%	u
COc1cc(CN(C(=O)c2oc3ccccc3c2C)C2CCS(=O)(=O)C2)cc(OC)c1OC (stereo not given)	-4.1%	-1.0%
Cc1ccccc1-c1nc2c3c(-c4ccccc4)c(-c4ccccc4)oc3ncn2n1	-9.4%	-30.1%
CCCN(CCC)C(=O)Cn1c(=O)n(-c2cccc(OC)c2)c(=O)c2c3c(sc21)CCCC3	2.7%	3.4%
CCOC(=O)c1c(NC(=O)c2noc3c2CC(C(C)(C)C)CC3)sc2c1CCCC2 (stereo not given)	-0.8%	-12.6%
CCOc1ccccc1NC(=O)Cn1ccn(-c2ccccc2)c(=O)c1=O	-18.1%	-0.8%
COc1ccc(-c2ccc3c(N)c(C(=O)NCc4ccc(Cl)cc4)sc3n2)cc1	4.3%	-1.1%
COc1ccc(OCC(=O)N2CCN(C(=O)c3cccc(OC)c3OC)CC2)cc1	8.4%	-3.2%
COc1ccc(-c2cc(C(=O)NCc3ccc(F)cc3)c3c(-c4ccc(F)cc4)[nH]nc3n2)cc1OC	-29.6%	u
CCCCCN(C)CCC(O)(P(=O)(O)O)P(=O)(O)O	-7.0%	x
c1ccc2occc2c1	7.4%[116 µM]	x
Cc1c(NC(=O)Cc2ccc(F)cc2)cccc1-c1nc2cccnc2s1	u	-14.2%
O=C(COC(=O)c1cc(-c2cccs2)nc2ccccc12)c1ccc(Br)cc1	8.1%	-2.4%
CCCCSCCCNC(=O)c1cn(CC)c2ccc(S(=O)(=O)N(C)C3CCCCC3)cc2c1=O	u	u
O=C(NCCc1ccc(Cl)cc1)c1ccc2c(c1)N(Cc1ccc(Cl)cc1)C(=O)CS2	u	u
Cc1ccc(NC(=O)Cn2c(=O)n(CCC(=O)NCc3ccccc3Cl)c(=O)c3ccccc32)c(C)c1	-8.5%	4.7%
CC(=O)Nc1cccc(NC(=O)CSc2ccc(-c3sc(-c4ccccc4)nc3C)nn2)c1	8.0%	u
CCn1c(=O)c2cc(C(=O)NCCCN(C)Cc3ccccc3)sc2c2ccccc21	10.8%	u
COc1ccc2c(c1)-c1nc(NC(=O)c3ccc(OC)c(Br)c3)sc1CC2	-26.6%	u
CCc1c(C)sc2c1CCN(C(=O)Nc1cc(C)cc(C)c1)C2c1ccccc1 (stereo not given)	u	u
COc1ccc(NC(=O)CN2C(=O)COc3ccc(S(=O)(=O)N4CCCCC4)cc32)cc1Cl	-11.0%	1.9%
Cc1nc(SCCOc2ccc(Cl)cc2)[nH]c(=O)c1Cc1ccccc1	-14.1%	u
COc1cccc(CNC(=O)c2cccc(NC(=O)c3nsc4ccccc34)c2)c1	-9.1%	-9.7%
Cc1cc(Br)cc(C)c1NC(=O)c1sc2ncn(Cc3cccc(F)c3)c(=O)c2c1C	1.8%	u
CCOC(=O)c1ccc(NC(=O)CCc2c(C)nc3nc[nH]n3c2=O)cc1	2.3%	-22.7%
Cc1cc(SCC(=O)NCc2ccccc2Cl)nc(=O)[nH]1	2.5%	-2.1%
COc1ccc(-c2nc3ccccc3s2)cc1NC(=O)c1ccccc1OC	48.0%[activator]	u
CCOc1ccc(C(=O)N2CC(=O)Nc3ccc(C)cc3C2c2ccc(F)cc2)cc1OCC (stereo not given)	u	u
Cc1ccc2c(c1)cc1c(=O)n(CC(=O)N(C)c3ccccc3)nc(C)n12	-3.0%	-0.8%
CCOC(=O)Cn1c(=O)n(CC2CCCO2)c2nc(-c3ccccc3)nc(C(N)=O)c21 (stereo not given)	1.8%	-1.0%
O=C(O)C[C@H](O)C[C@H](O)C=Cc1c(C2CC2)nc2ccccc2c1-c1ccc(F)cc1	11.8%	x
Cc1ccc(-c2cc(NC(=O)c3cccc(C)c3)on2)cc1	28.4%	7.2%
CCOc1ccc(Sc2cc(C(=O)NCc3ccc(F)cc3)c3ccccc3n2)cc1	u	u
COC(=O)C1=C(C)N(C(C)C)C(=O)C1(NC(=O)c1ccccc1OC)C(F)(F)F (stereo not given)	-11.2%[11.5 µM]	9.1%
NC1(C(=O)N[C@@H](CCO)c2ccc(Cl)cc2)CCN(c2ncnc3[nH]ccc23)CC1	u	x
Cc1ccc(-c2c(C(=O)NCc3ccccc3)oc(=O)c3ccccc23)cc1	-12.1%	-11.3%
Cc1ccc(CSc2nc3ccsc3c(=O)n2CCC(C)C)cc1	-3.5%	-2.9%
O=C(COc1ccccc1F)Nc1ccc2nc(SCCOc3ccccc3)sc2c1	-13.8%	u
CCn1cc(C(=O)N2CCN(c3ccccc3F)CC2)c(=O)c2cc(S(=O)(=O)N(C)C)ccc21	-4.3%	2.5%
CCOc1ccc(CNC(=O)c2ccc3oc(=O)n(Cc4ccccc4)c3c2)cc1	-17.4%	u
COc1cc(NS(=O)(=O)c2ccc(NC(=O)COc3ccc(Cl)cc3Cl)cc2)nc(OC)n1	-12.9%	-1.8%
CCC(C(=O)Nc1ccc(C)c(Cl)c1)n1c(=O)c(-c2ccccc2NC(C)=O)nc2ccccc21 (stereo not given)	22.4µM*	u

No enrichment for hits; 2.4% or so of the library scored in one or more.
